ugtP null kill = growth inhibition of S. aureus ugtP deletion strain; S. aureus RN4220 ugtP deletion, OD600 growth, 16 h; some inactives read as strong as hits; growth inhibition, % (concentration not given with the values); actives 0.54% (n = 330,000); AID 1259309;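 active = z-score under -3 and OD600 up to 0.15 on both plates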;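 note: plate controls were untreated wells for no effect and antibiotic for full effect; wells of about 80 µL received 100 nL stock; the first replicate is given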
RN4220 kill = kills Staphylococcus aureus RN4220; S. aureus RN4220 growth, OD600, 16 h; actives 0.33% (n = 330,000); inhibition, % (no concentration beside the values);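 active = z-score of -3 or lower and OD600 up to 0.18 on both plates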;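 note: plate controls were untreated cells for no effect and reference antibiotic for full effect; stock transfer was 100 nL into about 80 µL; one replicate is shown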
Mtb hypoxia rep = inhibitors of hypoxia-regulated fluorescent reporter in Mycobacterium tuberculosis; M. tuberculosis hypoxia-regulated fluorescent reporter, fluorescence; fluorescence inhibition, % (no concentration beside the values); actives 0.1% (n = 300,000); AID 1159583;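 active = 35 to 45% if threefold the growth effect, above 45% if 1.5-fold the growth effect; inactive = the rest, general growth blockers included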;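 note: wells of about 50 µL received 100 nL stock; 0% = vehicle wells and 100% = reference inhibitor wells; whole bacteria with a GFP reporter of the hypoxia response; strong numbers were not always called active; many hits fall short of the cut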
PrP 5UTR inh = suppresses PrP 5' UTR mRNA reporter expression; AID 488862; cell-based PrP 5' UTR mRNA reporter, plate reader; actives 0.35% (n = 340,000); inhibition, % (concentration not given with the values);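 active = every replicate at 50% or more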;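 note: 0 = median of the neutral control wells; tested in H4 reporter cells; numbers are from one replicate; inactives centre near -14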
Autofluor counter = counter-screen for toxin protease inhibitors: compound fluorescence; compound autofluorescence counterscreen, microsphere flow cytometry; stronger effect = higher value; fluorescence intensity (test concentration not listed); actives 3.1% (n = 360,000); AID 624483;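 active = at least 3 SD above the mean of all compounds, about 16000 in these data; inconclusive = too few beads counted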;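 note: 100 nL of 1 mM stock went into each well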
BJeLR lethal = BJeLR cell viability loss; BJeLR (HRASV12) viability, CellTiter-Glo ATP luminescence, 48 h; reference of the scale not given here; inhibition, % (concentration not given with the values); actives 0.17% (n = 300,000);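 active = replicate mean above 50%; inconclusive = above 50% but judged a plate artefact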;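 note: 50 nL library stock added to about 25 µL; numbers are from one replicate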
Mtb hypoxia rep growth = also measured in Mtb hypoxia rep; calls as there; growth inhibition, %; measured here: M. tuberculosis growth (absorbance);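 0% = vehicle and 100% = reference antibiotic; read after six days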
* hit, by the source's call; ? = inconclusive; · = no result given; & = joins results of further samples.

SMILES	ugtP null kill	RN4220 kill	Mtb hypoxia rep	Mtb hypoxia rep growth	PrP 5UTR inh	Autofluor counter	BJeLR lethal
O=C(COc1ccc(Cl)cc1)NC(=S)Nc1ccccc1N1CCOCC1	1	2.5	9	-14	-7	6064	-14
CC(O)C(NS(=O)(=O)c1ccc(Cl)cc1)C(=O)OCC(=O)Nc1cccnc1Cl (configuration not stated)	0	-0.4	-9	3	0	6702	-6
COc1ccc(NC(=O)C2CSC(C)(C)N2C=O)cc1 (configuration not stated)	0	2.4	8	6	-11	2242	-8
O=C(OCc1c(Cl)cccc1Cl)c1cccnc1Cl	-6	-0.1	-8	-1	-7	24071*	-3
CC[C@]12C(=O)N(C)CC(C3C(=O)N(C)C(=O)C31)N2C(=O)c1ccc(Cl)c(Cl)c1 (some centres not stated)	-11	2.6	-10	-2	·	·	·
CCN1/C(=N\N)c2cccc3cccc1c23	·	·	·	·	-15	3325	6
CN1/C(=C/C=C(C#N)C#N)C=Cc2ccccc21	2	1.5	21	-2	-7	4840	4
NC(=O)C(Cc1cc2ccccc2s1)NC(=O)C1CC2(CC(c3cccc(NC(=O)C4CCC(=O)N4)c3)=NO2)CN1C(=O)C=CSc1ccccc1 (configuration not stated)	-13	1.2	2	3	·	·	·
Cc1nnc(SCC(=O)NCc2ccco2)n1-c1ccc(F)cc1	3	3.2	4	6	-4	4155	1
CC(CCc1ccccc1)NC(=O)CNC(=S)N(Cc1cccs1)C1CCCC1 (configuration not stated)	8	9.4	-5	4	-8	3281	·
Cc1ccc(C2=NNC(C(O)C(O)C(O)C(C)O)S2)cc1 (configuration not stated)	0	1.5	·	·	-40	3872	2
CC(C)NC(=O)COC(=O)c1ccccc1C(=O)c1ccccc1	9	0.1	10	14	3	4213	-7
CC1Cc2ccccc2N1c1ncnc2c1nnn2Cc1ccccc1Cl (configuration not stated)	10	-6.0	·	·	4	4737	-10
C=CCN=c1scc(C)n1/N=C/c1ccc(O)c(O)c1	·	·	·	·	-27	4924	-7
O=C1NCC(NC(=O)C(F)(F)F)c2cc3c(cc21)OCO3 (configuration not stated)	9	3.9	11	7	-20	3280	-3
CCCc1[nH]nc2c1C(c1c(C)nn(-c3ccccc3)c1Cl)C(C#N)=C(N)O2 (configuration not stated)	11	0.6	11	12	-2	4621	-1
COC(=O)c1ccc(COc2ccc(-c3nn[nH]n3)cc2)cc1	8	2.8	13	2	-35	4697	7
CC1(C)Cc2ccccc2-c2nnc(-c3ccc(O)cc3)n21	10	14	-1	-2	-20	9812	-5
COc1ccc(C(=O)NCCS(=O)(=O)NCc2ccccc2)cc1	-5	-0.8	-2	8	-2	6188	3
CCOCCCNC(=O)Cc1ccc(OC)c(OC)c1	-8	3.6	3	6	-20	4276	-1
COC(=O)c1ccccc1NC(=O)CSc1n[nH]c(-c2ccncc2)n1	4	4.2	4	15	-12	?	-13
COCCCNC(=O)/C=C/c1ccc(Cl)cc1	4	-2.0	-7	1	-27	12812	5
Cn1nnnc1SCCNCc1ccccc1OCc1ccc(Cl)cc1	-14	1.3	9	1	-38	2681	-7
CCOC(=O)CSc1ncnc2c1sc1nc(N3CCOCC3)c3c(c12)CCCC3	7	-9.8	0	10	-21	3467	-7
Cc1ccc(C(C)NC(=O)Cc2cccs2)cc1C (configuration not stated)	-7	0.3	5	-4	-18	5732	1
Cc1ccc(C)c(NC(=O)COC(=O)CNC(=O)c2ccccc2Cl)c1	10	-1.3	-5	8	8	4286	-3
COc1cc(/C=C2\C(=O)ON=C2c2ccccc2)cc(Br)c1O	3	3.7	6	3	-11	3467	6
O=C(O)C[C@H]1c2cc(F)ccc2S(=O)(=O)N1C1CCCC1	·	·	·	·	-25	3632	1
CCN(c1ccccc1)S(=O)(=O)c1cc(C(=O)Nc2ccc(F)c(F)c2)ccc1F	-9	-4.7	11	11	-20	2409	5
COc1ccc(COc2cc(-c3cccc(OC)c3)nc3ccc(NC(=O)c4ccc(N(C)C)cc4)cc23)cc1	·	·	·	·	-19	4283	-6
CC1=C(C(N)=O)C(c2ccc(C)o2)C(C(N)=O)=C(C)N1	1	2.9	-5	0	-18	4538	26
CCN(CC)C(=O)CN1C(=O)C2(OCC(C)(C)CO2)c2ccccc21	2	3.9	12	7	-18	3623	·
Cc1cc(-c2n[nH]c(=S)o2)c(C)n1-c1ccccc1	4	3.5	8	7	·	·	-4
CCSc1nnc(CCNC(=O)OC(C)(C)C)o1	-3	2.5	6	13	-5	6522	1
COc1ccc(S(=O)(=O)c2cnc3ccccc3n2)cc1	0	1.0	-8	-20	-29	2561	-2
O=C(NCC(=O)N1CCN(c2ccccc2)CC1)c1ccco1	12	4.0	13	-2	-24	5913	1
O=C(CCCN1C(=O)C(c2ccccc2)Oc2cccnc21)Nc1ccccc1Cl (configuration not stated)	2	0.6	9	9	13	5502	6
Oc1ccc(Cl)cc1C=Nc1ccc(Br)cc1	7	11	6	5	-83	4145	2
C[C@]12CCC(=O)C[C@@H]1CC[C@@H]1[C@@H]2CC[C@]2(C)[C@@H](C(=O)COC(=O)CCC(=O)O)CC[C@@H]12	5&-3	29&23	10&7	2&-2	-12	3920&3134	19&-3
O=C(CCN1CCN(c2ccccc2)CC1)N/N=C/c1ccccc1O	·	·	·	·	-15	4435	-1

Sorted by number of heavy atoms (highest first): some entries from above
SMILES	ugtP null kill	RN4220 kill	Mtb hypoxia rep	Mtb hypoxia rep growth	PrP 5UTR inh	Autofluor counter	BJeLR lethal
O=C(NCC(=O)N1CCN(c2ccccc2)CC1)c1ccco1	12	4.0	13	-2	-24	5913	1
Cc1ccc(C2=NNC(C(O)C(O)C(O)C(C)O)S2)cc1 (configuration not stated)	0	1.5	·	·	-40	3872	2
CN1/C(=C/C=C(C#N)C#N)C=Cc2ccccc21	2	1.5	21	-2	-7	4840	4

(more compounds)
SMILES	ugtP null kill	RN4220 kill	Mtb hypoxia rep	Mtb hypoxia rep growth	PrP 5UTR inh	Autofluor counter	BJeLR lethal
COc1ccc(C(N)=NOC(=O)c2ccc(C)c([N+](=O)[O-])c2)cc1	-5	1.1	5	6	·	·	·
COc1ccc(CCNC(=O)c2c(C)nn(-c3ccccc3)c2Cl)cc1	6	2.5	10	17	-3	5525	-8
CCOC(=O)N1CCN(C(=O)c2ccccc2N(Cc2ccccc2)S(=O)(=O)c2ccc(OC)cc2)CC1	3	3.9	1	1	-16	4917	14
CC(C)N1CCC(N2CCN(C/C=C/c3ccccc3)CC2CCO)CC1 (configuration not stated)	5	7.8	5	0	-16	4909	-5
CCCC1Cc2[nH]c(=O)c(C#N)cc2CO1 (configuration not stated)	-1	2.2	9	-10	·	4113	7
COc1ccc(C(=O)NCC(c2cccnc2)N2CCN(c3ccccc3)CC2)cc1OC (configuration not stated)	-6	-13	7	3	-12	6665	-9
O=C(O)CNC(=O)c1cccc(C(F)(F)F)c1	2	1.5	-4	0	11	2018	-9
Cc1cc(NC(=O)c2cc([N+](=O)[O-])cc([N+](=O)[O-])c2)n(-c2ccccc2)n1	-13	0.3	-4	15	-3	2428	-12
CC(=O)Nc1ccc([N+](=O)[O-])cn1	2	0.3	·	·	8	5641	6
Cc1nn(C(=O)c2ccoc2C)c(N)c1-c1ccccc1	-2	-6.1	4	1	-35	6442	4
O=C(COC(=O)C1CCN(c2ccc(C(F)(F)F)cn2)CC1)c1ccc(Cl)cc1	5	3.2	1	-5	-19	5872	5
Cn1ccnc1C(O)c1cc(C(C)(C)C)c(O)c(C(C)(C)C)c1 (configuration not stated)	-7	3.5	-7	13	-12	6965	-3
COc1ccc(C(=O)NN=Cc2cc(Br)ccc2O)cc1OC	3	4.3	9	2	·	·	·
C/C(=N\NC(=O)CSCc1ccc(Cl)cc1)c1ccc2c(c1)OCCO2	·	·	·	·	6	3030	1
O=C(NNC(=O)c1ccc(Cl)cc1Cl)c1cnccn1	6	1.8	4	3	-20	5554	-5
CC(=O)Nc1ccc(S(=O)(=O)NCC(=O)OCC(=O)NNC(=O)c2ccccc2)cc1	1	2.6	3	4	-10	?	·
C=CCn1c(COc2ccccc2)nnc1SCC(=O)O	2	2.6	·	·	-10	4621	1
COC(=O)C1=C(c2ccc3ccccc3c2)CC2CCC1N2C (configuration not stated)	-3	0.7	-6	0	·	·	·
COc1ccc(/C=N/NC(=O)CNC(=O)c2cccs2)cc1	·	·	·	·	-16	2001	5
CSC1=NCCN1C(=O)c1ccc2ccccc2c1	2	2.6	3	-3	-4	4610	-3

17 entries from above in another layout:
Results follow in this order: ugtP null kill	RN4220 kill	Mtb hypoxia rep	Mtb hypoxia rep growth	PrP 5UTR inh	Autofluor counter	BJeLR lethal
COc1ccc(CCNC(=O)c2c(C)nn(-c3ccccc3)c2Cl)cc1
→ 6	2.5	10	17	-3	5525	-8
CCOC(=O)N1CCN(C(=O)c2ccccc2N(Cc2ccccc2)S(=O)(=O)c2ccc(OC)cc2)CC1
→ 3	3.9	1	1	-16	4917	14
CC(C)N1CCC(N2CCN(C/C=C/c3ccccc3)CC2CCO)CC1 (configuration not stated)
→ 5	7.8	5	0	-16	4909	-5
CCCC1Cc2[nH]c(=O)c(C#N)cc2CO1 (configuration not stated)
→ -1	2.2	9	-10	·	4113	7
COc1ccc(C(=O)NCC(c2cccnc2)N2CCN(c3ccccc3)CC2)cc1OC (configuration not stated)
→ -6	-13	7	3	-12	6665	-9
O=C(O)CNC(=O)c1cccc(C(F)(F)F)c1
→ 2	1.5	-4	0	11	2018	-9
Cc1cc(NC(=O)c2cc([N+](=O)[O-])cc([N+](=O)[O-])c2)n(-c2ccccc2)n1
→ -13	0.3	-4	15	-3	2428	-12
CC(=O)Nc1ccc([N+](=O)[O-])cn1
→ 2	0.3	·	·	8	5641	6
Cc1nn(C(=O)c2ccoc2C)c(N)c1-c1ccccc1
→ -2	-6.1	4	1	-35	6442	4
O=C(COC(=O)C1CCN(c2ccc(C(F)(F)F)cn2)CC1)c1ccc(Cl)cc1
→ 5	3.2	1	-5	-19	5872	5
Cn1ccnc1C(O)c1cc(C(C)(C)C)c(O)c(C(C)(C)C)c1 (configuration not stated)
→ -7	3.5	-7	13	-12	6965	-3
COc1ccc(C(=O)NN=Cc2cc(Br)ccc2O)cc1OC
→ 3	4.3	9	2	·	·	·
C/C(=N\NC(=O)CSCc1ccc(Cl)cc1)c1ccc2c(c1)OCCO2
→ ·	·	·	·	6	3030	1
O=C(NNC(=O)c1ccc(Cl)cc1Cl)c1cnccn1
→ 6	1.8	4	3	-20	5554	-5
CC(=O)Nc1ccc(S(=O)(=O)NCC(=O)OCC(=O)NNC(=O)c2ccccc2)cc1
→ 1	2.6	3	4	-10	?	·
C=CCn1c(COc2ccccc2)nnc1SCC(=O)O
→ 2	2.6	·	·	-10	4621	1
COC(=O)C1=C(c2ccc3ccccc3c2)CC2CCC1N2C (configuration not stated)
→ -3	0.7	-6	0	·	·	·
